Bioassay records: PubChem BioAssay, several laboratories
A1 inh: inhibitors of the anti-apoptotic protein A1, read as caspase activation; caspase activation, % (concentration not given with the values); MEF A1-2A-BIM cells, Caspase-Glo 3/7 luminescence, 3 h; percent of clofoctol response, vehicle zero; 330,000 compounds, 0.066% hits;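 active = over half of replicate activation scores above 10%, or exactly half above 10 with the replicate mean above 10; inconclusive = replicate mean below 10 yet half the replicates above 10; inactive = over half of replicates below 10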;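 also: wells of about 30 µL received 50 nL stock; many hits fall short of the cut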
Calb FLC: affects C. albicans growth with fluconazole; C. albicans CaCi-2 (fluconazole-resistant clinical isolate) + fluconazole, Alamar Blue growth, 48 h; growth inhibition, % (no concentration beside the values); 300,000 compounds, 0.57% hits; AID 1979;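 active = most replicates above 75%; inconclusive = exactly half above 75%; inactive = most below 75%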;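 also: all wells also contain fluconazole at 8 µg/ml as a sub-toxic cotreatment; 0% = median of DMSO wells and 100% = median of geldanamycin control wells; wells of about 8 µL received 7.5 nL stock; the first replicate is given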
Beta cell apopt: blocks beta cell apoptosis | INS-1E cytokine-induced death, ATP luminescence, 48 h; percent of positive-control rescue, neutral wells zero | protection from apoptosis, % (test concentration not listed) | 300,000 compounds, 0.8% hits;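 active = all replicates at 75% or more, or half of them and the mean; inconclusive = half reach 75% but not the mean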;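 also: 0% = cytokine-treated negative control wells and 100% = positive control rescue; higher means more ATP so stronger rescue from cytokine killing; wells of about 40 µL received 100 nL stock; the first replicate is given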
UCH37 inh: inhibitors of human deubiquitinating enzyme UCH37 | Q9Y5K5 | purified proteasome/UCH37, Ub-AMC cleavage fluorescence | inhibition, % (test concentration not listed) | 330,000 compounds, 0.33% hits;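 active = mean of two replicates above 20%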;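 also: 0% = compound-free wells with enzyme and 100% = wells lacking proteasome; stock transfer was 100 nL into about 20 µL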
Target sequence (Q9Y5K5 whole entry, looked up): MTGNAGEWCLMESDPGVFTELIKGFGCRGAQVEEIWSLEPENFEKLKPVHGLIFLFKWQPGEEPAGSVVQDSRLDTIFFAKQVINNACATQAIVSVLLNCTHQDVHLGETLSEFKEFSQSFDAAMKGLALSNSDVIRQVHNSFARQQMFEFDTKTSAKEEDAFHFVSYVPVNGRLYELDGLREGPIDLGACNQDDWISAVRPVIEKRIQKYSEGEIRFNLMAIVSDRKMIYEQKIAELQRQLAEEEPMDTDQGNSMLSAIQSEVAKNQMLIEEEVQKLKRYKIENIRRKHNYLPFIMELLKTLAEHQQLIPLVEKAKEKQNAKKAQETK
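Reagent: Ub-AMC substrate; assay system: Proteasome-associated human UCH37 deubiquitinase; controls: no-proteasome and no-compound wells; read-out: % inhibition of Ub-AMC cleavage fluorescence; timing: 30 min preincubation with enzyme, 25 min cleavage at room temperature; signal: AMC fluorescence from Ub-AMC cleavage, excitation 355 nm, emission 460 nm; buffer or medium: Tris-HCl pH 7.4 plus ovalbumin, ATP-MgCl2, DTT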
T cruzi inh: blocks replication of Trypanosoma cruzi. T. cruzi beta-gal in NIH3T3, luminescence, 90 h. inhibition, % (no concentration beside the values). 300,000 compounds, 1.4% hits. AID 1885;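 active = mean inhibition across valid replicates above about 55%, limit read from the data; inconclusive = mean below that limit but half or more replicates reach it; inactive = mean below it, under half of replicates reach it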;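 also: signal also drops with host cell toxicity which is not excluded here; 0% = plate median of DMSO wells and 100% = zero luminescence signal; higher percent means less beta-gal luminescence so fewer parasites; stock transfer was 50 nL into about 50 µL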
LANA-H2A inh: blocks KSHV LANA binding to histone H2A/H2B; inhibition, % (concentration not given with the values); 320,000 compounds, 0.6% hits; Q9QR71; AID 2629; cell-free LANA-H2A/H2B peptide, fluorescence polarization; in the data active = inhibition mostly above about 10%, no sharp cut-off; inactive = mostly below about 6.7%;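 also: stock transfer was 7.5 nL into about 10 µL; 0% = median of vehicle wells and 100% = median of positive control wells; one replicate is shown; the record names a cut of 25% in any replicate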
RanGTP-Impb inh: disruptors of Ran-importin-beta complex formation – biochemical, FRET, CFP-Ran, YFP-importin-beta, homogeneous, primary screen. cell-free CFP-Ran/YFP-importin-beta FRET ratio. AID 2216. inhibition, % (test concentration not listed). 300,000 compounds, 1.1% hits;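 active = most replicates above 15%; inconclusive = exactly half above 15%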;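 also: 0% = DMSO wells and 100% = Ran loaded with GDP instead of GTP; wells of about 40 µL received 100 nL stock; the first replicate is given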
Beta2AR agonist: activates human beta-2 adrenergic receptor causing internalization; Am2.2-beta2AR cells, FAP receptor internalization, flow cytometry; reference of the scale not given here; response, % (concentration not given with the values); 340,000 compounds, 0.43% hits;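 active = response above a set limit, near 3 SD of response in nonfluorescent compounds, cut at about 42% in these data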;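 also: stock transfer was 100 nL into about 11 µL; a reference agonist was the positive control; negative values mostly stem from fluorescent compounds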
Target sequence (P07550 whole entry, looked up): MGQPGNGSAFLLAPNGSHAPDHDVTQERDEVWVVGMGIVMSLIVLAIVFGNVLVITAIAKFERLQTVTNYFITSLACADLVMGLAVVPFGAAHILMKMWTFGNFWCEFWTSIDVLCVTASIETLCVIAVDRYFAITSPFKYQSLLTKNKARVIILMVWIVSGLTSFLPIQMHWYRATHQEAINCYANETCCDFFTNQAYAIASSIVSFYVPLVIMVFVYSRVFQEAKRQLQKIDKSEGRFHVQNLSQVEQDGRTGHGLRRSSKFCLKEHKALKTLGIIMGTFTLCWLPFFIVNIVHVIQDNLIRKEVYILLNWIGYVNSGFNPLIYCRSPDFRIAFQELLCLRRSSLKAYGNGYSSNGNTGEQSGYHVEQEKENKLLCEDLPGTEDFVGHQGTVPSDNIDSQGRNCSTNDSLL
Numbers without * were called inactive; ? = inconclusive; . = not tested or not shown. Random draw from the library, and some 4.3% of all compounds hit somewhere here.

SMILES	A1 inh	Calb FLC	Beta cell apopt	UCH37 inh	T cruzi inh	LANA-H2A inh	RanGTP-Impb inh	Beta2AR agonist
COc1ccc(Cl)cc1NC(=O)CN(C)C(=O)c1cccc(-n2cnnn2)c1	-0.2	.	-2	1.8	.	-231	.	-11
COc1ccc(-n2nnnc2SCC(=O)c2cccc(OC)c2)cc1	-0.4	1	3	-0.1	-2	0.5	-1.7	-5
O=C(COc1cccc2ccccc12)NNC(=O)[C@@H]1CCCC[C@@H]1C(=O)O	0.3	-4	2	1.5	-5	8.3	-0.9	-10
O=C(CCCn1c(=O)c2cccn2c2cccnc21)NCCc1ccc(Cl)cc1	-1.1	4	16	-6.9	10	6.3	?	-14
N#C/C(=C\c1ccco1)C(=O)Nn1cnnc1	-0.4	-17	-2	17	-9	-0.9	0.3	2
Cc1nc(C)c(C(=O)OCC(=O)Nc2ccccc2)s1	0.0	.	-4	-1.5	.	-2.9	.	1
CCOc1ccc(C(=O)c2nc3c(n2O)CCCC3)cc1	-1.8	-8	-4	9.0	-7	-0.6	0.8	6
CCOc1ccc(CCNC(=O)C2CC(=O)N(C3CCCC3)C2)cc1OCC (configuration not stated)	2.1	-3	-1	6.3	-18	-0.8	-1.4	-10
Cc1c(CCO)c(=O)[nH]n1C(=O)c1ccc(F)cc1	-15	-11	-2	0.0	-9	7.6	-0.1	-4
CCOc1ccc(CN2CCC(n3nccc3NC(=O)C3CC3)CC2)cc1CO	-1.0	4	0	0.3	-9	-3.7	-0.8	-5
CCC(C)(C(=O)NC1CCCCC1)N(Cc1cccs1)C(=O)c1ccc(=O)[nH]c1 (configuration not stated)	1.2	-14	-7	-0.5	-15	-1.7	-1.7	-4
COc1ccc(NC(=O)c2cc(S(=O)(=O)N3CCOCC3)cs2)cc1	-1.1	2	.	6.0	-4	-2.1	1.8	5
Cc1ccnc(NC(=O)CCC(=O)N(CC(=O)NCc2ccccc2)Cc2ccco2)c1	0.1	5	-39	-0.7	5	-11	-1.4	4
COCc1ccc(CN2CCc3c([nH]c4ccccc34)C2CC(C)C)o1 (configuration not stated)	?	8	-4	-24	2	0.4	2.0	-2
CN1CCN(/C=N/c2sc3c(c2C#N)CCCCC3)CC1	-0.9	-5	3	.	58*	-2.6	-1.9	-4
CCc1cccc(OCC(=O)Nc2c[nH]c(=O)[nH]c2=O)c1	1.4	-2	5	1.9	-13	0.3	2.7	-5
CCOC(=O)Cn1c(S(=O)(=O)Cc2ccccc2)nc2ccccc21	-0.2	1	-7	2.8	0	-8.8	1.9	6
Cc1ccc(-c2cc(C(=O)N3CCN(c4ncccn4)CC3)c3cc(Br)ccc3n2)o1	1.2	-15	-8	-80	10	-3.4	-3.3	19
Cc1ccc(NC(=O)COC(=O)c2ccco2)cc1C	1.2	.	5	4.2	.	0.1	.	-4
O=C(COC(=O)c1ccc2ccccc2c1)Nc1ncc(C(F)(F)F)cc1Cl	0.4	23	-1	-0.6	-10	-0.4	-0.2	-8
Cc1c(Br)c([N+](=O)[O-])nn1CC(=O)Nc1ccc(C(N)=O)cc1	0.7	12	-13	1.5	22	2.9	?	0
CN(C)C(=O)c1nc2ccc(Cl)cn2c1CN1CCCC(OCc2cccnc2)C1 (configuration not stated)	0.5	22	-7	3.2	-2	-3.0	1.7	-2
O=C(COC(=O)c1ccccc1Br)Nc1ccc(F)cc1	-0.2	-6	-2	4.3	-11	-1.7	-2.5	-6
CCOC(=O)N1CCN(C(=O)CS(=O)(=O)Cc2nc(-c3ccccc3C)oc2C)CC1	0.1	4	-2	-0.7	-9	8.3	-3.3	4
O=C(OCCc1cc2ccccc2c(=O)o1)N1CCOCC1	-0.2	.	-11	3.4	.	-4.9	.	-6
NS(=O)(=O)c1ccc(NC(=O)CCC(=O)c2cccs2)cc1	0.7	-5	0	0.4	-18	-5.2	2.1	0
OC[C@H]1O[C@@H](Oc2ccc3cc(Br)ccc3c2)[C@H](O)[C@@H](O)[C@H]1O	1.3	.	-6	2.5	.	-1.5	.	-2
O=C(Nc1ccc(F)cc1)N(CCCN1CCOCC1)Cc1cc2cc3c(cc2[nH]c1=O)OCCO3	-0.2	2	-15	-13	-5	-1.0	-6.4	-1
Cc1cc(C)n2cc(CSCc3ccccc3)nc2n1	0.2	13	0	-290	-12	-1.9	0.3	-12
O=C(NC1CCCCC1)C(c1ccc(Cl)cc1)N(C(=O)c1cnccn1)c1ccc2c(c1)OCO2 (configuration not stated)	-0.2	66	3	0.8	0	0.0	4.1	-4
Nc1ccc(O)c([N+](=O)[O-])c1	-0.5	.	-3	4.0	.	-9.5	.	-3
O=C(N/N=C/c1cc(Br)cc(Br)c1O)c1cccc(N2CCCC2=O)c1	-0.2	?	2	.	61*	3.0	3.7	2
O=C(Cn1ccc([N+](=O)[O-])n1)NCc1cccnc1	0.0	2	-3	-0.1	6	3.6	1.8	-1
O=C(NCc1ccco1)c1cc(=O)c2ccccc2o1	0.0	3	-1	0.5	-1	0.8	0.0	15
Cc1c(CC(=O)O)c(=O)oc2c(C)c3occ(-c4ccc(F)cc4)c3cc12	0.1	12	-3	-29	-3	3.0	24*	14
O=C(CN1CCN(C(C(=O)Nc2ccc(Cl)cc2C(F)(F)F)c2ccccc2)CC1)NC1CC1 (configuration not stated)	-0.9	.	-5	5.1	.	6.5	.	13
CC1=C(C(=O)Nc2ccc(C(=O)N3CCN(c4ccccc4F)CC3)cc2)SCCO1	1.0	-18	-8	3.3	17	0.7	-2.9	73*
Cc1cc2[nH]c(=O)c(=O)[nH]c2cc1S(=O)(=O)N1CCN(c2cccc(C(F)(F)F)c2)CC1	1.0	10	-3	2.1	3	10	-1.1	8
Cc1noc(C(=O)Nc2cc(Cl)ccc2O)c1Cl	-0.3	0	12	1.1	-2	0.6	2.2	8
Cc1ccsc1C(=O)C1CCCN(Cc2cn(C)nc2-c2ccccc2)C1 (configuration not stated)	0.4	-15	11	1.1	5	-1.2	1.4	-8
CN(C(=O)COC(=O)c1ccc2ccccc2n1)C1CCCCC1	-0.5	.	-1	1.3	.	1.2	.	3
COc1ccc(-c2noc(CCCc3ccccc3)n2)cc1OC	-0.6	24	0	3.2	1	-0.6	26*	-3
Cc1nc2ccccc2c2oc(C(=O)NCCN3CCN(C)CC3)cc12	0.8	-9	10	3.8	0	4.4	2.7	3
CCC(C)(C)N1CC(=O)N(Cc2ccccc2)C(c2ccc(OC)cc2)C1=O (configuration not stated)	-0.6	-28	-2	5.9	-7	-4.1	-2.4	0
CCN(CC(=O)NCc1ccc(Cl)cc1)C(=O)CCC(=O)c1ccc(C)cc1	0.9	4	7	1.2	6	4.0	2.2	-1
CC1CCN(C(=O)c2ccc(CNc3c(N4CCCC4)c(=O)c3=O)cc2)CC1	-0.6	-3	-5	0.3	-6	0.6	5.8	-12
O=C(COC(=O)C1CCN(C(=O)c2ccc(Cl)cc2)CC1)c1ccco1	-0.8	-1	.	6.5	-5	0.1	5.2	3
COc1ccccc1OCCOc1ccc(/C=C2\C(=N)N3N=C(S(C)(=O)=O)SC3=NC2=O)cc1	0.6	-1	-4	-26	5	1.8	3.1	1
CCOc1ccc(Cl)cc1CNCCNCCO	0.9	-9	-9	3.8	-4	-5.1	6.8	1
Cc1ccc(-n2nnnc2SCC#N)cc1	-4.6	-9	0	1.7	-2	-8.0	4.1	2
O=C1NNC(c2ccccc2)=N/C1=C\c1ccccc1	-0.6	-2	-6	23*	-23	-0.1	7.4	11
O=C(NCCN1CCOCC1)c1ccc(NS(=O)(=O)c2ccccc2)cc1	2.0	-22	0	-2.2	-15	-1.1	6.7	1
O=C(NNS(=O)(=O)c1ccccc1C(F)(F)F)c1cc2ncc(C(F)(F)F)cc2s1	0.3	2	-1	7.3	-10	2.7	0.7	-4
COc1ccccc1NC(=O)CCC(=O)OCc1cccc([N+](=O)[O-])c1	-1.2	10	6	14	-11	5.1	3.9	3
O=C(NC1CCCCC1)NC1CCN(S(=O)(=O)Cc2ccccc2)CC1	0.3	2	1	0.7	-36	5.7	-2.8	-13
N#Cc1ccccc1OCC(=O)NNC(=O)c1ccncc1	1.9	.	-4	-0.3	.	0.5	.	8
CC(c1ccco1)N(C(=O)c1ccc(Cl)s1)c1ccccn1 (configuration not stated)	-0.1	-11	-9	4.9	7	-0.4	0.4	.
CC(=O)c1cccc(NC(=O)N2CCCC2C(=O)NCc2ccc3c(c2)OCO3)c1 (configuration not stated)	0.9	6	2	-0.9	6	5.3	2.3	-2
COc1ccc(OCCC(=O)OCC(=O)Nc2ccc(S(=O)(=O)N3CCOCC3)cc2)cc1	-0.1	-3	-5	-2.2	-9	1.5	2.1	6
Cc1cc(C(=O)COC(=O)C2=COCCO2)c(C)n1-c1cccc(F)c1	0.4	-3	1	4.7	-19	-4.9	-3.1	0

(list continues)
SMILES	A1 inh	Calb FLC	Beta cell apopt	UCH37 inh	T cruzi inh	LANA-H2A inh	RanGTP-Impb inh	Beta2AR agonist
CS/C(=N\S(=O)(=O)c1cccs1)Nc1ccc(N2CCOCC2)cc1	-1.1	11	5	.	-7	0.1	0.5	-1
CCC(=O)NCCNc1nc2cc(C)cc(C)c2cc1C#N	-0.3	2	5	-179	-8	-5.1	-11	1
O=C(NNc1nc2ccc(F)cc2s1)c1cccc(F)c1	-9.7	44	49	4.8	67*	4.2	6.9	0
CCOP(=O)(OCC)c1nc(-c2ccc(C)cc2)oc1NCc1ccccc1	0.0	15	5	-30	13	-6.7	0.4	-4
O=C(OC(C(=O)NC1CCCC1)c1cccnc1)C1=Cc2ccccc2OC1 (configuration not stated)	0.3	-2	-7	-5.8	1	2.1	-0.6	-13
Oc1ccc(Cl)cc1-c1cc(C(F)(F)C(F)F)nc(-c2ccccc2)n1	0.3	?	14	-14	0	1.0	0.1	15
COc1ccc(S(=O)(=O)N2CCN(CC(=O)Nc3cccc(OC)c3)CC2)cc1	-1.0	-6	-7	0.4	-5	-0.3	3.0	-1
CC(Sc1ccc(Cl)cc1)C(=O)NCC(c1ccco1)N1CCCCC1 (configuration not stated)	1.1	0	-1	-0.8	10	0.7	0.2	2
O=C(Nc1nnc(-c2ccc(Cl)cc2)o1)C1=COCCO1	0.6	42	.	2.8	-18	-8.1	-0.6	-3
N#Cc1ccc(/C=N/NC(=O)CCc2ccc(S(=O)(=O)N3CCOCC3)cc2)cc1	0.5	-7	3	.	8	-9.2	-2.9	9
ClCc1csc(-c2ccc(Cl)cc2)n1	1.7	-26	2	5.7	10	-0.8	-1.0	-4
CSc1ccccc1NC(=O)C1C2CCC(C2)C1C(=O)O (configuration not stated)	0.6	4	-5	3.3	-16	-2.8	5.5	3
CCCc1cc2c(=O)c(-c3ccc4c(c3)OCCO4)c(C)oc2cc1OS(C)(=O)=O	-1.3	-1	0	2.6	24	5.0	-0.9	-2
